Sfp inh – blocks B. subtilis Sfp PPTase activity; Q9F4F7; Biochemical Sfp PPTase activity, qHTS; Potency, µM, without a hit: max response, negative = inhibition, most hits filed as inhibitors; hit rate 3.5% among 310,000; AID 1490; active means well fitted inhibition curve with a large enough effect; inconclusive means small, poorly fitted or top-dose-only effect, or another doubt; inactive means no such curve, though single readings can be large or run the other way;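 further: the enzyme is Sfp with the accession as filed and its product quenches rhodamine fluorescence; potency means the concentration at half of the fitted maximal effect; 0% = enzyme reaction without inhibitor and -100% = no enzyme wells; top concentration of the series not given in the record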
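With Hepes-Na pH 7.6 buffer containing 10 mM MgCl2, Sfp (15 nM) modified BHQ-2-YbbR (12.5 uM) using rhodamine-CoA (5 uM). Two reads 30 minutes apart at 525/598 nm yielded each well's rate.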
CtBP-E1A blk – CtBP/E1A binding inhibition. activity change, % (test concentration not listed). AID 651724. hit rate 0.49% among 340,000. AlphaScreen GST-E1A/His-CtBP binding, 1536-well; active compounds read low; control for the full effect not named in the record; in the data active means activity change below about -65%; inconclusive means about -30% to -65%; inactive means above about -30%; further: on the % scale 0 is the no-effect control and ±100 the full control effect
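In 5 uL wells, 23 nL compound meets equimolar GST-E1A and His-CtBP (5X stock 125 nM each) for 2 h, 37 °C. Beads (5X, 50 ug/mL) then 1 h, 37 °C, dark.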
Menin MLL FP FL – inhibitors of human menin-MLL interaction, wild-type MLL peptide; Fluorescence polarization, fluorescein-MLL peptide displacement from menin; FP activity change, % at 61.4 µM; 290,000 tested, under 10 active; inconclusive = falling polarisation curve, or a change in total fluorescence; inactive = total fluorescence flat and polarisation flat or rising; no compound was filed as active; the % refers to the polarisation; negative = inhibition;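 further: % of control where 0% means no effect; inhibitors lower the polarisation; unlabelled MLL peptide was the positive control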
gsp agonist – gsp mutant agonism | gsp mutant cells, cAMP HTRF, 30 min; control for the full effect not named in the record | Potency, µM (highest dose often 76.9 µM), without a hit: at the top dose activation (cAMP increase), hits mostly activators | hit rate 0.13% among 340,000 | AID 624287; active = well fitted activation curve with a large enough effect; inconclusive = small, poorly fitted or top-dose-only effect, or another doubt; inactive = no such curve, though single readings can be large or run the other way; cell line not stated here;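 further: phosphodiesterase inhibitor Ro 20-1724 added with compounds to block cAMP breakdown; potency means the concentration at half of the fitted maximal effect; nearly all actives have a fitted effect of over 60% in size; about a fifth of the inactives were tested at one dose only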
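Cells stably selected in G418 were plated at 2000/well, grown 16-24 hr, then given compounds in DMSO with the PDE inhibitor […] (300 uM solution added) for 30 min at 37C; cAMP was read by HTRF.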
TRPV1 potentiator – enhances activation of the human vanilloid receptor TRPV1 | AID 540277 | potentiation, % at 8.33 µM | hit rate 0.02% among 320,000 | Q8NER1 | TRPV1-expressing cells, Fluo-8 calcium influx, capsaicin EC20 potentiation; host cell line not named in the record; control for the full effect not named in the record; active means potentiation above 80%; inconclusive means 30% to 80%; inactive means below 30%; further: 0% is about no effect
Target sequence (Q8NER1 whole entry, looked up): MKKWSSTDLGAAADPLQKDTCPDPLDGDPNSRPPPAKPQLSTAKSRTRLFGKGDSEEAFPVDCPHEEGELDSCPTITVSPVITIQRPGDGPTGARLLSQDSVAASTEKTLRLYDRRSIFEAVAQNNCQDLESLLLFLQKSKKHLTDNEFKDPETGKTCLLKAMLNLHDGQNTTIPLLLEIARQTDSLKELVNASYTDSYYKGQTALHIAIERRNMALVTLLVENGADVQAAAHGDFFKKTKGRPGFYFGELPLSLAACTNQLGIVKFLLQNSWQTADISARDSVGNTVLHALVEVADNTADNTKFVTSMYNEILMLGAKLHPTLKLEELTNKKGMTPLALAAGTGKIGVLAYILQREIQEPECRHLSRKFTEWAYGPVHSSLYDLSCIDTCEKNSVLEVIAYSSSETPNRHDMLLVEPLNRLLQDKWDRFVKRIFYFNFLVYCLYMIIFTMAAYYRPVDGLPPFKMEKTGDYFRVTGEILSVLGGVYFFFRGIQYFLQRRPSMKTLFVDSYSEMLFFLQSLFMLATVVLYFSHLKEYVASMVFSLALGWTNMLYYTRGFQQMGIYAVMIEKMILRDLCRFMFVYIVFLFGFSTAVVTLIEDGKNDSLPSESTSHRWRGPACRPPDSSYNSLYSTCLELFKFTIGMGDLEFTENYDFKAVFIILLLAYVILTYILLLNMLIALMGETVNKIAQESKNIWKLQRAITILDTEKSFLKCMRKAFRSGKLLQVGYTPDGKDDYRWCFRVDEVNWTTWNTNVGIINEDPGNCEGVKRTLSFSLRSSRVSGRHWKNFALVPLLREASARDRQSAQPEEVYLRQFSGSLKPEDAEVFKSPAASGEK
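Fluo-8 calcium influx in TRPV1-expressing cells, kinetic read (ex 480/em 520 nm). Compound added and read 3 min for agonist activity, followed by capsaicin at EC20 final and 2 min further read for enhancement.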
ClpP mod – qHTS Assay for Activators of ClpP; ATP-dependent Clp protease proteolytic subunit (Bacillus subtilis (strain 168)), P80244; purified B. subtilis ClpP, FRET peptide cleavage, 20 min; Potency, µM (doses to about 57.5 µM), without a hit: at the top dose activity change, negative = active; hit rate 1.9% among 340,000; AID 651965, 2013; active = well fitted falling curve with a large enough effect; inconclusive = small, poorly fitted or top-dose-only effect; inactive = no such curve, though single readings can be large or run the other way; further: potency means the concentration at half of the fitted maximal effect; the source files actives as falling curves though it sought activators and does not explain the sign; nearly all actives have a fitted effect of over 65% in size; many hits overshoot -100%
Target sequence (P80244 whole entry, looked up): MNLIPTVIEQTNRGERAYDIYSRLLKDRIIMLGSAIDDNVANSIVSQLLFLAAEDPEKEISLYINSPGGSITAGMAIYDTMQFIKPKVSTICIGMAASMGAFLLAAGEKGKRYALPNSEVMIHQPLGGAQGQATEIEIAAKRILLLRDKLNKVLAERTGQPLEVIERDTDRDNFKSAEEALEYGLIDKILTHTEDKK
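ClpP 10 microg/mL final, pH 8 Tris/KCl buffer with BSA, glycerol, Tween-20; compound pinned in; FRET-FV substrate; RT 20 min; Ex320/Em430; ΔFRET vs ADEP 5.8 microM, DMSO, no enzyme.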
gsp antag – gsp mutant antagonism. gsp-mutant cells, cAMP HTRF, 30 min; control for the full effect not named in the record. Potency, µM (top dose mostly 76.9 µM), without a hit: at the top dose activity change, negative = inhibition, hits mostly inhibitors. hit rate 0.4% among 340,000; active = falling curve of any shape with a large fitted effect; inconclusive = falling curve, mostly with a smaller effect; inactive = flat or rising curve; cell line not stated here;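 further: intracellular cAMP measured with PDE inhibitor Ro 20-1724 present during compound exposure; potency means the concentration at half of the fitted maximal effect; on the % scale 0 is the no-effect control and ±100 the full control effect; nearly all actives have a fitted effect of over 65% in size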
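HTRF cAMP read-out (cAMP-d2 plus anti-cAMP antibody-K in lysis buffer, 30 min RT). Before lysis, cells are exposed to compounds with […] for 30 min at 37C in DPBS containing Ca/Mg, BSA and Tween 20.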
Starred values were filed as active, the others as inactive; u = inconclusive; x = no result given; & = joins results of further samples; [ ] = dose if it differs, or a comment.

SMILES | Sfp inh | CtBP-E1A blk | Menin MLL FP FL | gsp agonist | TRPV1 potentiator | ClpP mod | gsp antag
Cc1ccccc1C(=O)O[C@H]1[C@H](Cc2ccccc2)NS(=O)(=O)[C@H]2CC3C=C[C@]12O3 | x | 1 | x | 9% | x | -1.2%&0.0% | -8%
CCC1=C2CC[C@H]3C(=O)N(CC)C(=O)[C@H]3[C@H]2[C@@]2(Cc3ccccc3)C(=NCCOC)OC(=O)N2C1=O | 20%&17% | -7 | -6.9&0.5 | x | 10 | -3.8% | 8%
CCNCCOC(c1ccccc1)c1ccccc1 | 11% | 8 | 0.5 | -10% | 0 | -1.7% | -12%
Fc1ccc(/C=N/NC(=S)NCCc2ccccc2)cc1F | 10% | -2 | -1.7 | -1%[15.4 µM] | 5 | x | -4%
Nn1c(SCC(=O)NC2CCCc3ccccc32)nnc1C1CC1 (stereo not given) | x | -7 | x | 27% | x | -0.5% | -3%
O=C(/C=C/c1ccco1)c1cccc([N+](=O)[O-])c1 | x | 0 | x | -26% | x | -6.1% | -9%
CCOc1ccc(CCNC(=O)CCc2c(C)nc3ncnn3c2C)cc1OCC | 12% | -8 | 2.5 | 3% | -3 | 1.0% | -5%
COc1ccccc1-c1nnc(NC(=O)c2ccc(S(=O)(=O)N3CCCC3)cc2)o1 | 22% | -18 | x | 11% | 28 | 1.4% | -8%
Cn1c(SCC(=O)NNC(=O)Cc2ccccc2)nnc1-c1ccc(Cl)cc1 | 20% | 6 | -1.1 | 1% | 4 | -0.9% | 9%
COc1ccc(NC(=O)CN2C(=O)c3cccc4cccc2c34)cc1OC | 0% | 5 | 3.1 | 0% | -5 | -0.7% | 15%
N/C(CC(=O)Nc1ccc(F)cc1)=N\O | 9% | -3 | 0.2 | 4% | -4 | -2.2% | 9%
CCOC(=O)c1cnc2c(C)c(Cl)ccc2c1NCCCN1CCOCC1 | 9% | x | 0.4 | 1% | -13 | -18% | -9%
O=C1C(=O)c2ccccc2C(O)=C1CCCCl | -27% | -25 | -0.5 | -9% | x | 1.0% | 0%
CCCn1c(N)c(N(CCOC)C(=O)CSc2ccccc2)c(=O)[nH]c1=O | x | 2 | x | -10% | 4 | 0.9% | 5%
O=C(Nc1cccc([N+](=O)[O-])c1)c1cccc(C(=O)Nc2cccc([N+](=O)[O-])c2)c1 | -16% | x | -0.9 | u | 26 | -0.7% | -2%

A section taken from the entries so far:
SMILES | Sfp inh | CtBP-E1A blk | Menin MLL FP FL | gsp agonist | TRPV1 potentiator | ClpP mod | gsp antag
O=C1C(=O)c2ccccc2C(O)=C1CCCCl | -27% | -25 | -0.5 | -9% | x | 1.0% | 0%
CCCn1c(N)c(N(CCOC)C(=O)CSc2ccccc2)c(=O)[nH]c1=O | x | 2 | x | -10% | 4 | 0.9% | 5%
O=C(Nc1cccc([N+](=O)[O-])c1)c1cccc(C(=O)Nc2cccc([N+](=O)[O-])c2)c1 | -16% | x | -0.9 | u | 26 | -0.7% | -2%

(cont.)
SMILES | Sfp inh | CtBP-E1A blk | Menin MLL FP FL | gsp agonist | TRPV1 potentiator | ClpP mod | gsp antag
O=C(CSc1ncccn1)Nc1ccc(Cl)c(S(=O)(=O)N2CCOCC2)c1 | x | -4 | x | 3% | x | x | -15%
CC1(C)CC(=O)c2cc(C(=O)N3CCCC(C)(C)C3)c(=O)n(-c3ccccc3)c2C1 | 7% | -2 | 0.2 | 3% | 0 | -1.0% | 5%
O=C(Cc1cccs1)Nc1ccc(NC(=O)c2ccco2)cc1 | 6% | -5 | -1.2 | 2% | 14 | u | 5%
O=C(CSc1cccc[n+]1[O-])c1cc2ccccc2o1 | u | -10 | -0.7 | 7% | -14 | -2.8% | 0%
COc1ccc(S(=O)(=O)N2CCOCC2)cc1NC(=O)CN(C)Cc1c(F)cccc1Cl | -12% | -14 | -0.6 | -14%[15.4 µM] | -13 | x | 5%
CCOc1ccccc1NC(=O)N1CCC(NC(=O)c2cccc(C)c2)CC1 | -25% | 3 | 2.8 | 22% | -3 | 1.3% | -16%
O=C(O)CN1C(=O)S/C(=C\c2ccc3c(c2)OCO3)C1=O | x | 8 | x | 1%[15.4 µM] | x | x | -3%
Cc1cc(C)cc(Nc2nc(-c3ccc(S(=O)(=O)N4CCCC4)cc3)cs2)c1 | 3% | -2 | 6.2 | -3% | -18 | 3.7% | -16%
COc1ccc(CC(=O)OCC(=O)Nc2ccc(N3CCOCC3)cc2)cc1 | 10% | x | 1.7 | -31%[inhibitor] | 3 | 1.0% | -1%
Cc1cccc(N2CCN(C(=O)CNC(=O)c3cccc([N+](=O)[O-])c3)CC2)c1C | -6% | -2 | -5.4 | -4%[15.4 µM] | -5 | x | -7%
O=C(Nc1nnc(SCC(=O)N2CCCC2)s1)C1CC(=O)N(c2ccc(F)cc2)C1 (stereo not given) | u | 7 | x | -5%[15.4 µM] | -2 | -2.7% | 3%
O=C(NC1CCCCC1)n1c(=O)oc2ccc(Cl)cc21 | 18% | 6 | 3.4 | 10% | 0 | -1.0% | 10%
CC(C)c1ccc(C2C(C#N)=C(N)Oc3c2oc(CO)cc3=O)cc1 (stereo not given) | 4% | 2 | 5.6 | -31%[15.4 µM] | -1 | x | -1%
CN1CCN(CC(=O)N2c3ccccc3C(C)(c3ccccc3)CC2(C)C)CC1 (stereo not given) | 6% | -2 | -0.1 | 3% | 4 | 1.1% | 8%
CCC(c1nnc(SCC(=O)Nc2ccc(C(C)=O)cc2)n1C1CCCCC1)N(C)C (stereo not given) | 5% | 6 | 2.2 | 0% | -9 | x | 0%
CCC1(c2ccccc2)NC(=O)N(CC(=O)NCC2COc3ccccc3O2)C1=O (stereo not given) | x | 4 | x | -50%[inhibitor] | -21 | 0.7% | -11%
CC(=O)Nc1nc(-c2ccc3c(c2)CCN3S(C)(=O)=O)cs1 | 56µM* | 20 | -2.1 | 1%[15.4 µM] | -2 | x | x
CCCCNc1c(-c2ccc(OC)c(SC3CCCCC3)c2)nc2ccc(Cl)cn12 | x | 0 | x | u | x | u | -6%
CC1CC(=O)Nc2ccccc2N1C(=O)CSc1ncnc2sccc12 (stereo not given) | x | 3 | x | u | 1 | -1.8% | -14%
CC(=O)c1cccc(N2C(=O)C3C4CCC(C4=C(C)C)C3C2=O)c1 (stereo not given) | 5% | -14 | -0.7 | 15% | 19 | -20% | 2%
CCOC(=O)c1cnc(SCC(=O)Nc2ccc(NC(=O)CC)c(OC)c2)nc1N | 7% | -8 | -1.6 | 18% | 7 | -10% | -2%
Cc1cc(=O)oc(C)c1C(=O)Nc1cccc2nonc12 | 1% | -4 | -0.2 | u | 7 | -4.1% | 10%
Cc1cccc(NCc2ccc(Br)cc2)n1 | 14% | 0 | 2.6 | 18% | 14 | x | 3%
CSc1ncc(F)c(N(CCO)CCO)n1 | 26% | -9 | -0.1 | 16% | 3 | -1.9% | 13%
CN(CC(=O)Nc1cccc(C(F)(F)F)c1)Cc1ccccc1 | 11% | 13 | -0.8 | -3%[15.4 µM] | u | -1.6% | -18%
CCn1c(NCc2ccco2)nc2ccccc21 | 15% | 5 | -1.3 | -3%[15.4 µM] | 23 | 1.0% | 18%
Cc1cccc(OCCCCc2c(C)n[nH]c2C)c1C | 11% | 1 | 3.6 | u | -1 | 1.7% | -25%
CC(C)NC(=O)c1ccc(C(C)C)cc1 | 6% | 3 | -1.1 | -4% | -22 | x | 9%
Cc1ccc(-c2nc3c4ccccc4ccn3c2Cc2ccccc2)cc1 | x | 9 | x | -5% | x | 3.8% | x
COc1ccc(NC(=O)CSc2ccc(-c3cccnc3)nn2)cc1 | 6% | -5 | 1.0 | -51%[inhibitor] | 3 | -2.6% | 7%

Structural class: the entries above with a thiophene ring, fused or not (2)
SMILES | Sfp inh | CtBP-E1A blk | Menin MLL FP FL | gsp agonist | TRPV1 potentiator | ClpP mod | gsp antag
O=C(Cc1cccs1)Nc1ccc(NC(=O)c2ccco2)cc1 | 6% | -5 | -1.2 | 2% | 14 | u | 5%
CC1CC(=O)Nc2ccccc2N1C(=O)CSc1ncnc2sccc12 (stereo not given) | x | 3 | x | u | 1 | -1.8% | -14%

(more compounds)
SMILES | Sfp inh | CtBP-E1A blk | Menin MLL FP FL | gsp agonist | TRPV1 potentiator | ClpP mod | gsp antag
CC(Nc1ccccc1)c1ccncc1 (stereo not given) | 24% | 0 | 3.1 | 11% | -6 | x | 0%
O=C(CN1CCN(C(=O)c2ccco2)CC1)Nc1ccc2c(c1)OCCO2 | 5% | 6 | -3.0 | 9% | 8 | -2.6% | 8%
O=C(COC(=O)c1cccc(C(F)(F)F)c1)NCc1ccccc1 | 34% | -11 | 0.6 | -40% | -17 | 1.5% | 14%
CC(C)CNS(=O)(=O)c1cc2c3c(c1)CC(=O)N3CCC2 | 4% | 3 | -5.3 | u | -15 | -0.7% | 4%
O=C1CC(c2cccc(F)c2)SC(N(c2ccccc2)c2ccccc2)=N1 (stereo not given) | 26% | 0 | -1.2 | 3% | 4 | -0.5% | -8%
COc1ccc(Br)cc1/C=C1\Oc2ccccc2NC1=O | 10% | x | 2.1 | u | 2 | -19% | 10%
CCOC(=O)c1c(-c2ccc(F)cc2)csc1NC(=O)CCN1CCOCC1 | u | -2 | 0.0 | -3% | -9 | 0.8% | -27%
Nc1nnc(C2CCCC2)s1 | 7% | -15 | 0.9 | -29% | 0 | -0.9% | 15%
COc1cccc(C2(O)CCN(C(=O)Cc3cccnc3)CC2)c1 | 5% | 10 | 1.1 | -70%[inhibitor] | u | -2.3% | 0%[15.4 µM]
COc1ccc(C(CNS(=O)(=O)c2ccc(F)cc2)N2CCN(C)CC2)cc1 (stereo not given) | x | 8 | x | -4% | 0 | 0.9% | 18%

Screening data deposited in PubChem BioAssay by National Center for Advancing Translational Sciences (NCATS).
